# Cruzain noTriton: qHTS Assay for Promiscuous and Specific Inhibitors of Cruzain (without detergent) | Cruzipain (Trypanosoma cruzi), P25779 | purified cruzain, Z-FR-AMC fluorescence, no detergent | Potency, µM, without a hit: max response, negative = inhibition, actives largely listed as inhibitors | hit rate 2.3% among 200,000;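 also: plate controls were enzyme without inhibitor for no effect and buffer without enzyme for full effect; nearly all actives have a fitted effect of over 40% in size; top concentration of the series not given in the record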
# Target sequence (P25779 123-467 limits assumed): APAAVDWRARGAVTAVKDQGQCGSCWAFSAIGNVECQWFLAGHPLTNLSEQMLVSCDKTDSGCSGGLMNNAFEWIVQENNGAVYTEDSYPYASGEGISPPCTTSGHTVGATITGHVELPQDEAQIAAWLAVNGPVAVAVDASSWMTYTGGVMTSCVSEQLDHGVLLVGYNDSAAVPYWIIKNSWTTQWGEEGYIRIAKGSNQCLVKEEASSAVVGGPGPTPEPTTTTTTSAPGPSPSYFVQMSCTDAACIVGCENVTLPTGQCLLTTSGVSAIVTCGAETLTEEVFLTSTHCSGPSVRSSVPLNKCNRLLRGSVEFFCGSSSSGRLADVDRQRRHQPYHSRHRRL
#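 Purified cruzain at 1.5 nM, pre-incubated 15 min with compound at room temperature in 100 mM sodium acetate pH 5.5, 5 mM DTT, 0.00005% Triton X-100. Reaction started with 2 uM Z-FR-AMC; AMC fluorescence increase over 60 s gives rate.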
# SARS PLpro yeast: qHTS of Yeast-based Assay for SARS-CoV PLP; S. cerevisiae expressing SARS-CoV PLpro, growth rescue; control for the full effect not named in the record; Potency, µM (top dose mostly 32.9 µM), for inactives: at the highest dose activity, positive = growth rescue; hit rate 0.19% among 330,000; active means well fitted rising curve with a large enough effect; inconclusive means small, poorly fitted or top-dose-only effect; inactive means no such curve, though single readings can be large or run the other way; also: 0% is about no effect; nearly all actives have a fitted effect of over 55% in size; growth read by luminescence after 48 h
# Cruzain inh Det: qHTS Assay for Promiscuous and Specific Inhibitors of Cruzain (with detergent); Cruzipain (Trypanosoma cruzi), P25779; purified cruzain, Z-FR-AMC fluorescence, 0.01% Triton; Potency, µM, for the others: max response, negative = inhibition, actives largely listed as inhibitors; hit rate 0.43% among 200,000; AID 1478, 2009;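 also: plate controls were neutral wells for no effect and buffer without enzyme for full effect; nearly all actives have a fitted effect of over 40% in size; top concentration of the series not given in the record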
#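 Steps: dispense cruzain (1.5 nM final) in acetate buffer pH 5.5 with DTT and 0.01% Triton X-100; pin-transfer compounds; incubate 15 min RT; add Z-FR-AMC (2 uM final); read fluorescence every 30 s, using the 60 s intensity change.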
# NS1 function inh: qHTS Assay for Inhibitors of Influenza NS1 Protein Function; S. cerevisiae slowed by influenza A NS1, growth recovery by OD600; Potency, µM (series often up to 46.1 µM), without a hit: at the highest dose activity, positive = more growth; hit rate 0.4% among 270,000; AID 2326, 2010; active means well fitted rising curve with a large enough effect; inconclusive means small, poorly fitted or top-dose-only effect; inactive means no such curve, though single readings can be large or run the other way; also: nearly all actives have a fitted effect of over 50% in size
#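 In this qHTS, NS1 from influenza A is expressed in budding yeast, where it slows growth. Cells are switched from glucose to 2% galactose medium (pH 6.0, -URA), treated with compound, and growth recovery is read at OD600.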
# 2A StopGo: High Throughput Screening for Foot and Mouth Disease Virus Antivirals; human cells with a luciferase reporter of 2A StopGo recoding; control for the full effect not named in the record; hit rate 1.2% among 410,000; Potency, µM (doses to about 57.9 µM), inactives show top-dose signal change, negative = less light; AID 1159524, 2015; active = well fitted falling curve with a large enough effect; inconclusive = small, poorly fitted or top-dose-only effect; inactive = no such curve, though single readings can be large or run the other way; tested in HEK293T cells; also: % is scaled to controls: 0 for no effect and ±100 for the full control effect; nearly all actives have a fitted effect of over 45% in size; luciferase light after 4 h
# Lassa entry inh: qHTS for Inhibitors of binding or entry into cells for Lassa Virus. Lassa virus pseudotype entry inhibition, cell reporter; control for the full effect not named in the record. Potency, µM (doses to about 37.9 µM), without a hit: at the highest dose activity change, negative = inhibition, hits mostly inhibitors. hit rate 1.2% among 300,000; active means well fitted inhibition curve with a large enough effect; inconclusive means small, poorly fitted or top-dose-only effect, or effect the other way; inactive means flat fitted curve, though single readings scatter; tested in HEK293 cells; also: % is scaled to controls: 0 for no effect and ±100 for the full control effect; nearly all actives have a fitted effect of over 50% in size; luciferase read-out
# MARV entry inh: qHTS for inhibitors of binding or entry into cells for Marburg Virus. Marburg virus pseudotyped entry inhibition, cell reporter; control for the full effect not named in the record; about a third of the inactives were read at about 46 µM. Potency, µM (highest dose often 37.8 µM), for inactives: at the top dose activity change, negative = inhibition, actives largely listed as inhibitors. hit rate 1.8% among 300,000; active = well fitted inhibition curve with a large enough effect; inconclusive = small, poorly fitted or top-dose-only effect, or effect the other way; inactive = flat fitted curve, though single readings scatter; tested in HEK293 cells; about a fifth of its hits are not listed in these tables; also: % is scaled to controls: 0 for no effect and ±100 for the full control effect; luciferase read-out
# RE007 growth inh: qHTS Assay for Inhibitors of the HIV-1 protein Vpr | S. pombe RE007 Vpr strain, BacTiter-Glo ATP luminescence, 24 h; control for the full effect not named in the record | Potency, µM (series often up to 92.2 µM), for the others: at the top dose activity change, negative = less growth | hit rate 0.21% among 360,000 | AID 651644, 2012; active = well fitted falling curve with a large enough effect; inconclusive = small, poorly fitted or top-dose-only effect; inactive = no such curve, though single readings can be large or run the other way;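 also: % is scaled to controls: 0 for no effect and ±100 for the full control effect; nearly all actives have a fitted effect of over 50% in size; the assay follows cell death caused by Vpr and the record does not say whether a fall means rescue or toxicity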
#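 Fission yeast RE007 carrying one integrated HIV-1 vpr copy, seeded at OD 0.01 in PMG+AL medium with 23 nL pinned compound. Grown 24 h at 30 degrees; viability read by BacTiter-Glo luminescence after 5 min.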
# * marks the source's active call; other numbers are inactive results; u = inconclusive; x = not tested or not shown; & = joins results of further samples; [ ] = remark or other dose. Unless noted, calls follow the shape of the dose curve; as a rule, active = well fitted curve in the direction sought with a large enough effect; inconclusive = small, poorly fitted or top-dose-only effect, or another doubt; inactive = no such curve, though single readings can be large; an effect the other way counts as inactive or inconclusive. Potency is read from the fitted curve at half-maximal effect.
SMILES,Cruzain noTriton,SARS PLpro yeast,Cruzain inh Det,NS1 function inh,2A StopGo,Lassa entry inh,MARV entry inh,RE007 growth inh
O=c1c(C(c2ccccc2)c2c(O)nc3n(c2=O)CCCS3)c(O)nc2n1CCCS2,-25%,4%,2.6%,x,1%,18%,10%[46.1 µM],-2%
CC1CCCN(CCCOc2ccc(Cl)cc2Br)C1 (stereo not given),-6%,-15%,-9.6%,-30%,10%,-23%,u,-12%
CCn1nc(C)cc1C(=O)N1CCc2c([nH]c3ccccc23)C1c1cc(F)ccc1F (stereo not given),x,0%,x,5%,12%,3%,u,-6%
O=Cc1c[nH]c2ccc(C(=O)c3ccccc3)cc12,x,0%,x,-10%,29%,-19%,u,-7%
CCc1ccccc1Nc1nn2c(=O)c3ccc(C(=O)Nc4cc(C)cc(C)c4)cc3nc2s1,0%,x,-2.4%,x,u,u,x,x
COCCCNC(=O)C1CCC(CNS(=O)(=O)c2ccc3c(c2)N(C(C)=O)CCO3)CC1 (stereo not given),x,0%,x,-7%,-12%,x,x,-8%
COC(=O)c1ccc(COC(=O)c2cccn2C)o1,x,-3%,x,-11%,37%[activator],13%[46.1 µM],u,-11%
CC(=O)Nc1ccc(S(=O)(=O)Nc2nc(CN3CCOCC3)nc3sc4c(c23)CCCC4)cc1,u,-1%,-7.1%,-2%,1%,-14%,22%,1%
Cc1cccc(Cn2c(=O)n(CCC(=O)NCCc3ccc(Cl)cc3)c(=O)c3sccc32)c1,1%,x,-1.1%,x,-19%,-4%[46.1 µM],-7%[46.1 µM],x
COc1cccc(CNC(=O)Cn2nc(-c3ccc(C)cc3)ccc2=O)c1,-4%,x,0.8%,x,-25%,10%[46.1 µM],x,x
CN(CC(=O)Nc1ccccc1C(F)(F)F)C(=O)c1ccc(-c2ccc(Cl)cc2)o1,x,-4%,x,x,u,u,13%,8%
COc1ccc(S(=O)(=O)N(C)C)cc1NCC(=O)Nc1ccc(F)cc1F,-10%,-9%,-1.9%,13%,3%,7%,-7%,-1%
COc1cc(OC)c(NC(=O)c2c3c(nn2C)-c2ccccc2SC3)cc1Cl,-7%,x,-3.2%,x,-8%,u,-12%[46.1 µM],x
Cc1cccc(OC(C)C(=O)N2CCCN(C)CC2)c1C (stereo not given),x,11%,x,9%,-8%,x,x,-1%
O=S(=O)(c1ccc(Cl)cc1)c1nnn2c1nc(NC1CCCC1)c1sccc12,2%,x,-0.6%,x,-30%,-20%[46.1 µM],x,x
Cc1ccc(Cl)cc1-n1ncc2c(NNC(=O)c3ccco3)ncnc21,x,-3%,x,x,8%,u,-7%[46.1 µM],5%
O=C(NC1CCS(=O)(=O)C1)/C(=C\c1ccccc1)NC(=O)c1ccccc1 (stereo not given),-4%,7%,2.8%,12%,-3%,-4%,u,-16%
Cc1ccc(S(=O)(=O)NC(C)(C)CSc2nnc(Nc3ccccc3)s2)cc1,0%,-4%,-3.9%,-5%,u,u,u,33%
CCN1C(=O)/C(=C/c2cn(C)nc2C)SC1=S,-11%,7%,-4.5%,-16%,-7%,0%,0%,-10%
Cc1ccc(NC(=O)Cn2nnc(C(=O)NCc3cccs3)c2N)cc1F,x,6%,x,2%,-8%,x,x,-8%
CC(NC(=O)CC(O)(C(F)(F)F)C(F)(F)F)c1ccccc1 (stereo not given),-6%,-9%,3.6%,3%,x,1%,21%,-6%
Cc1nc2cc3ccccc3cc2s1,x,x,x,x,37%[activator],12%[46.1 µM],11%[46.1 µM],0%
COc1cc(/C=C/C(=O)OCC(=O)NC(=O)NC(C)(C)C)ccc1O,x,1%,x,5%,-11%,x,x,-9%
Cc1ccc(S(=O)(=O)N2CCN(C(=O)/C=C/c3ccccc3)CC2)cc1C,x,-3%,x,x,u,19%,u,-8%
Cc1cc(C)c(S(=O)(=O)Nc2cccc(S(=O)(=O)N3CCOCC3)c2)c(C)c1,x,5%,x,10%,53%[activator],x,x,-2%
CCOC(=O)NC(=O)C(=CNc1ccccc1C)C(=O)NC(=O)OCC,1%,18%,-0.8%,14%,1%,15%,u,-6%
CCCOC(=O)c1ccc(NC(=O)C(CC)CC)cc1,-9%,-9%,-4.7%,-5%,26%,8%,u,-6%
O=S(=O)(Nc1nc(CN2CCOCC2)nc2sc3c(c12)CCCC3)c1cc(F)ccc1F,u,-4%,-15%,-3%,24%,1%,13%&13%,-11%
Brc1ccc(-c2nnc(-c3ccccc3)c(N3CCSCC3)n2)cc1,u,3%,0.6%,-10%,11%,-16%,u,-5%
O=C(O)Cn1ncn(-c2ccc(OC(F)(F)F)cc2)c1=O,x,3%,x,x,-3%,-5%,19%[46.1 µM],7%
Cn1c(=O)oc2cc(S(=O)(=O)N3CCCC3)ccc21,-2%,14%,4.6%,u,-13%,x,x,1%
Brc1ccc(C2N3CCCN23)cc1 (stereo not given),8%,18µM*,-2.2%,15%,2%,15%,22%,21%
Cc1ccc(Nc2ncc(C(=O)Nc3ccc(F)cc3F)c3ccccc23)cc1Cl,11%,x,-7.7%,x,-6%,17%[46.1 µM],2%[46.1 µM],x
CC1CCN(S(=O)(=O)c2ccc(NC(=O)C3CC3)cc2)CC1,x,2%,x,2%,-10%,-27%,-11%[46.1 µM],5%
O=C(CSc1nnc(-c2cccs2)n1Cc1ccccc1)NCc1ccc2c(c1)OCO2,-6%,-8%,4.8%,6%,u,23%,7%,7%
O=c1c2ccccc2nc(-c2ccco2)n1-c1ccccc1,-8%,-14%,-6.5%,-1%,-27%,8%,u,-11%
CCCc1ccc(C(C)NC(=O)c2cnccn2)cc1 (stereo not given),5%,-1%,0.7%,2%,u,-1%,-10%,3%
CCOC(=O)c1c(NC(=O)CCS(=O)(=O)c2ccccc2)sc2c1CCN(C)C2,x,-1%,x,21%,6%,x,x,2%
COc1ccc(C(C)=O)cc1COc1nc(C)nc2ccccc12,x,-2%,x,x,-3%,-6%,-15%[46.1 µM],8%
CN(C(=O)c1nc(-c2cccc(F)c2)n2c1CCCCC2)c1ccccc1F,6%,x,-0.8%,x,-13%,4%[46.1 µM],x,x
CCCCn1c(O)c(C(C)=NCCCN(C)C)c(=O)[nH]c1=O,-2%,1%,-0.3%,14%,13%,-4%,-8%,9%
CCc1nc2cccnc2n1-c1ccc(CC(=O)NCCOC)cc1,x,-2%,x,4%,-1%,x,x,1%
CSc1ccc(CC(=O)N2CCC(n3nccc3NC(=O)C3CC3)CC2)cc1,x,-1%,x,-4%,64%[activator],x,x,5%
O=C(c1ccc(-c2ccccc2)cc1)N1CCN(c2ncccn2)CC1,-1%,-9%,-3.1%,-20%,0%,-11%,-4%[46.1 µM],-8%
COc1ccc(N(CC(=O)NC2CC3CCC2C3)S(=O)(=O)c2ccc(C)cc2)cc1 (stereo not given),x,-5%,x,-22%,-13%,u,u,-17%
CC(C)CC(c1nnnn1C(C)(C)C)N1CCN(C2CCCC2)CC1 (stereo not given),-3%,3%,1.1%,-6%,-22%,3%,u,-5%
COC(=O)c1cc(OC)c(OC)cc1NC(=O)CCCCCN1C(=O)CCC1=O,8%,2%,-4.1%,-10%,-25%,7%,3%,11%
O=C(NCC(NS(=O)(=O)OCC(Cl)(Cl)Cl)c1ccccc1)C(F)(F)F (stereo not given),x,1%,x,18%,-8%,x,x,1%
Cc1c(NC(=O)C(C)OC(=O)c2ccc([N+](=O)[O-])cc2Cl)c(=O)n(-c2ccccc2)n1C (stereo not given),x,x,x,x,0%,18%,-1%,-27%
O=C(Nc1cccc(F)c1)/C(=C\c1cccnc1)NC(=O)c1ccco1,x,1%,x,4%,-6%,-6%,1%[46.1 µM],-1%
Clc1nccc(N2CCN(c3ccccc3Cl)CC2)n1,x,x,x,x,-22%,3%,3%[14.2 µM],-4%
O=C1C=CC(=O)N1c1cccc(-c2ccccc2)c1,x,-7%,x,-48%,-4%,u,-4%,2.5µM*
O=C(NC1CCCCCC1)c1cc2c(=O)n3ccccc3nc2s1,x,-5%,x,-8%,59%[activator],-1%,16%[46.1 µM],7%
Cc1nc2c(-c3ccc(F)cc3)cnn2c(N)c1-c1ccccc1,x,-11%,x,-41%,16µM*,x,x,-29%
COc1ccccc1S(=O)(=O)Cc1ccc(C(=O)N2CCN(c3ccccn3)CC2)o1,-3%,-1%,0.3%,-7%,u,x,x,-11%
Clc1ccc(-c2nc3cc(CN4CCCCC4)ccc3o2)cc1,x,1%,x,-1%,13%,-1%[46.1 µM],u,-4%
CCc1ccc(NC(=O)C(Cc2ccccc2)NS(=O)(=O)c2ccc3c(c2)CCN3C(C)=O)cc1 (stereo not given),8%,x,-4.2%,x,1%,-5%[46.1 µM],-10%[46.1 µM],x
COc1ccc(CCN(C)C2CCCN(C(=O)Cn3cccn3)C2)cc1OC (stereo not given),x,2%,x,7%,-8%,x,x,-1%
CCn1cc(C(=O)Nc2ccc(NC(=O)c3ccco3)cc2)c(=O)c2ccc(C)nc21,12%,2%,-1.4%,5%,-18%,11%,u,6%
COc1ccc(C(C)=O)cc1COc1ccc(Cl)c(C)c1,x,0%,x,-4%,-22%,-14%[46.1 µM],-12%[46.1 µM],-2%

# New compounds follow:
SMILES,Cruzain noTriton,SARS PLpro yeast,Cruzain inh Det,NS1 function inh,2A StopGo,Lassa entry inh,MARV entry inh,RE007 growth inh
COc1ccc(Cl)cc1C(=O)NCc1cn(C)nc1C,-5%,2%,2.9%,1%,13%,-20%,6%,3%
COc1ccc2c(c1)CCN1C2CCN2C(=O)CCC21 (stereo not given),x,2%,x,1%,-1%,u,9%[46.1 µM],-4%
COc1ccccc1OC(=O)Cc1cccc2ccccc12,x,1%,x,3%,-4%,5%[46.1 µM],-4%[46.1 µM],-9%
Cc1ccccc1-n1cnnc1SCC(=O)Nc1cccnc1Cl,x,-2%,x,x,-5%,-3%,u,-2%

# Screening results as filed in PubChem.

# No enrichment for hits, and some 4.7% of all compounds hit somewhere here.
